Screening results deposited in PubChem BioAssay by National Center for Advancing Translational Sciences (NCATS).
TDP1 cell CPT: growth inhibition of DT40 Tdp1-/-;hTDP1 cells with camptothecin (screen for TDP1 inhibitors) | chicken DT40 Tdp1-/-;hTDP1 cells + 20 nM CPT, ATP luminescence, 48 h | Potency, µM (highest dose often 46.2 µM), without a hit: top-dose activity change, negative = growth inhibition, actives largely listed as inhibitors | AID 686979 | 420,000 compounds, 12% hits; further: nearly all actives have a fitted effect of over 55% in size
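Chicken DT40 Tdp1-/- cells stably complemented with human TDP1 were seeded at 400 cells/well in medium containing 20 nM camptothecin, exposed to pin-transferred compounds, and grown at 37 °C for at least 48 hr. Viability was read as ATP luminescence.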
GCN5L2 inh: blocks human GCN5L2 histone acetyltransferase. Potency, µM (series often up to 58.9 µM), for inactives: at the top dose activity change, negative = inhibition, actives largely listed as inhibitors. Q92830. GCN5L2 HAT assay, ThioGlo1 CoA-SH fluorescence. AID 504327. 390,000 compounds, 0.21% hits
Target sequence (Q92830 whole entry, looked up): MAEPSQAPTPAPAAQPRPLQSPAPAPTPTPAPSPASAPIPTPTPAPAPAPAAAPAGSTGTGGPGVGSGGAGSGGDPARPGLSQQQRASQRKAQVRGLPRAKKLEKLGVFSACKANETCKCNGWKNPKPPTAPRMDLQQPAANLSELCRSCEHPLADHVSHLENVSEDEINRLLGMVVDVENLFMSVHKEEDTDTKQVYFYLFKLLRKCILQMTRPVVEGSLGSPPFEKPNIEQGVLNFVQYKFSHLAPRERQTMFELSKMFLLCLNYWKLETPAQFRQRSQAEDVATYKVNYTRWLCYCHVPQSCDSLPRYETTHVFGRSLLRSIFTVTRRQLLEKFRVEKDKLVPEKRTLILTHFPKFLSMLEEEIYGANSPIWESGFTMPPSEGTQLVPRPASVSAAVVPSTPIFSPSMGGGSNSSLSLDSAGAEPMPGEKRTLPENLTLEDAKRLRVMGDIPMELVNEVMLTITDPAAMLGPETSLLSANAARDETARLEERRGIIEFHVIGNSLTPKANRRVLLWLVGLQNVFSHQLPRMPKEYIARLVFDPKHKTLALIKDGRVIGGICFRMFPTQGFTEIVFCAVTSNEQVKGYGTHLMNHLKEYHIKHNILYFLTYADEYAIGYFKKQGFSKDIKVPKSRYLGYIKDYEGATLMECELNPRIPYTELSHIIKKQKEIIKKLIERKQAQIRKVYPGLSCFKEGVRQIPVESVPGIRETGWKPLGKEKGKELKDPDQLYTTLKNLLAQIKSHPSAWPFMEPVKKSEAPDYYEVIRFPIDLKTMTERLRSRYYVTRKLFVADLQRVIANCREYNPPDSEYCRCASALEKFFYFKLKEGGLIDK
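Preincubate 20nM GCN5L2 with compound 15 min, RT → add 50uM ThioGlo1 + 75uM H3(1-25) + 70uM acetyl-CoA → read fluorescence 0 and 20 min. Primary qHTS; fluorescent artifacts likely.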
The depositor's hits bear a star; ? = inconclusive; . = no result given; & = joins results of further samples; [ ] = dose if it differs, or a comment. The call rests on the fitted dose curve; in most records, active means well fitted curve in the direction sought with a large enough effect; inconclusive means small, poorly fitted or top-dose-only effect, or another doubt; inactive means no such curve, though single readings can be large; an effect the other way counts as inactive or inconclusive. On the % scale 0 is the no-effect control and ±100 the full control effect; potency means the concentration at half of the fitted maximal effect. An excerpt, and most or all hits are left out here.

smiles,GCN5L2 inh,TDP1 cell CPT
CS(=O)(=O)N1CCN(c2ncnc3c2cnn3-c2ccccc2)CC1,2%,-20%
Cc1sc2ncn(CC(=O)N3CCN(c4ccccc4F)CC3)c(=O)c2c1S(=O)(=O)N1CCOCC1,0%,-7%
O=C1c2[nH]nc(-c3ccccc3O)c2C(c2cccc(OCc3ccccc3)c2)N1CCO (stereo unspecified),0%,-1%
CCOc1ccc(CN2C(=O)c3ccccc3Sc3ccc(C(=O)NCc4ccco4)cc32)cc1,-4%,-25%
CCNC(=O)CSc1nnc(C2CC2)n1-c1ccccc1,-8%,5%
O=C(CN1CCN(c2ccccc2F)CC1)N1N=CCC1c1ccccc1 (stereo unspecified),-2%,-26%
O=c1ccc2c(o1)/C(=C/C=C(Cl)Cl)CCC2,-9%,-19%
Cc1csc(NC(=O)CSC2=NCCS2)n1,-8%,?
O=C(Nc1cccnc1)C1CCN(S(=O)(=O)c2cccc3nonc23)CC1,-1%,-1%
NCCCCCc1nnc(SCc2cccc(Cl)c2)o1,-4%,?
Cc1ccc(S(=O)(=O)NCCCN2CCCC2)cc1,2%,-14%
CN(C)c1ccc(CNn2cnnc2SCc2ccccc2F)cc1,2%,-15%
COc1cc(-c2nnc(SCCOc3ccc(C)c(Cl)c3)o2)cc(OC)c1OC,-8%,?
Cc1ccc(NC(=O)CC2C(=O)N(Cc3ccccc3)C(=S)N2NC(=O)c2ccccc2)c(C)c1 (stereo unspecified),1%,?
O=C(c1ccc(N2C(=O)CCC2=O)cc1)N1CCN(c2ccccc2)CC1,5%,8%

Record cards (already shown).
Shown for O=C1c2[nH]nc(-c3ccccc3O)c2C(c2cccc(OCc3ccccc3)c2)N1CCO (stereo unspecified) → GCN5L2 inh: 0%; TDP1 cell CPT: -1%
Shown for CN(C)c1ccc(CNn2cnnc2SCc2ccccc2F)cc1 → GCN5L2 inh: 2%; TDP1 cell CPT: -15%

The list continues.
smiles,GCN5L2 inh,TDP1 cell CPT
CC(=O)N1N=C(c2ccccc2)OC12CCCC2,-4%,-3%
COc1cc2c(CCNC(C)=O)c[nH]c2cc1Cl,-4%&-1%,7%&9%&8%
COc1cc(NC(=O)c2ccccc2Cl)ccc1NC(=O)c1ccco1,-14%,5%
COC(=O)c1ccc(Oc2nc3c(c(=O)n(C)c(=O)n3C)n2Cc2ccc(Cl)c(Cl)c2)cc1,-8%,4%
CN(Cc1ccccc1)Cc1nc2c([nH]1)c(=O)[nH]c(=O)n2C,-3%,-25%
CCOC(=O)C1CCCN(C(=O)c2cc(-c3ccc(C)cc3)on2)C1 (stereo unspecified),-7%,-1%
CCOC(=O)c1ccc(NC(=O)CCNS(=O)(=O)c2cccs2)cc1,-1%,-23%
O=S(=O)(c1cccs1)N1CCC(CO)(Cc2cccc(F)c2)CC1,-7%,2%
CC1CN(S(=O)(=O)c2ccc(C(=O)N(CCCN(C)C)c3nc4cc5c(cc4s3)OCCO5)cc2)CC(C)O1 (stereo unspecified),-9%,-27%
CCOC(=O)COc1ccc(S(=O)(=O)NCc2ccco2)cc1,-1%,7%
O=C(COC(=O)c1ccc(N2CCCC2=O)cc1)NCc1ccco1,-2%,-7%
COc1ccc([C@H]2Cc3cc(O)cc(O)c3C(=O)O2)cc1O,-1%,0%
CN(C)Cc1cc2ccccc2c2c1COC2,3%,-7%
COc1ccc(S(=O)(=O)N(CC(=O)NCc2ccco2)c2ccc(F)cc2)cc1,1%,-11%
Cn1c(=O)c2c(nc(CN3CCOCC3)n2CCCO)n(C)c1=O,-1%,-4%

(cont.)
smiles,GCN5L2 inh,TDP1 cell CPT
CC1=NN(c2ccccc2)C(=O)C1c1ccccc1 (stereo unspecified),-6%,2%
CCCc1nnc(NC(=O)c2ccc(N3C(=O)C4C5C=CC(C5)C4C3=O)cc2)s1 (stereo unspecified),-2%,-22%
O=c1c2ccccc2ncn1-c1ccccc1[N+](=O)[O-],-20%,1%
Oc1ccc(Br)cc1C=Nc1ccc2[nH]ncc2c1,-9%,-7%
COc1ccc(N2CCN(CCNC(=O)c3nnc(Cc4c(F)cccc4Cl)o3)CC2)cc1,-1%,-10%
CC(C)Oc1ccc(N2CC(C(=O)Nc3ccccc3C(=O)NC3CC3)CC2=O)cc1 (stereo unspecified),-10%,-23%
COCCN(CC1CCCN(C2Cc3ccccc3C2)C1)C(=O)CCSC (stereo unspecified),1%,-23%
C=CCOc1ccc2c(c1)c(=O)cc(C(=O)O)n2CC,-3%,-1%
O=C(O)CC1S/C(=N\N=C2CCCCCC2)N(c2ccccc2)C1=O (stereo unspecified),1%,-8%
COc1ccc(NC(=O)CO/N=C/C(=O)Nc2ccccc2C)c([N+](=O)[O-])c1,-3%,-2%
Fc1ccc(-c2csc(NC3=NCCC3)n2)cc1,0%,?
COc1cccc2c1OCC/C2=N\NC(=O)C(C)Oc1ccc([N+](=O)[O-])cc1 (stereo unspecified),-1%,-1%
CC(C)CC(=O)N=C1SC2CS(=O)(=O)CC2N1Cc1ccccc1 (stereo unspecified),0%,9%
Fc1ccc(N=Cc2ccc[nH]2)cc1,-4%,2%
CC(C)(Cc1ccccc1)NC(=O)C(=O)c1cn(CC(=O)N2CCOCC2)c2ccccc12,-4%,-28%

(more compounds)
smiles,GCN5L2 inh,TDP1 cell CPT
Nc1nncn1C(=O)CCCN1C(=O)c2ccccc2C1=O,1%,-8%
CC(=O)NCCC(=O)Nc1ccc(F)cc1C,-3%,34%[activator]
COc1cc(NC(=O)c2ccc(-c3cccc([N+](=O)[O-])c3)o2)ccc1NC(=O)C(C)C,-6%,?
COc1cccc(C(O)Cc2nc3ccccc3n2C)c1OC (stereo unspecified),-11%,11%
CCOc1cc(/C=C/C(=O)c2ccc(O)cc2)ccc1OCC(=O)N(C)C,-11%,?
O=C(COC(=O)c1cc(Cl)nc(Cl)c1)NCCc1ccc(F)cc1,-15%,-17%
OC1c2cc(Br)ccc2N=C2CCCN21 (stereo unspecified),-18%,12µM*
CCOC(=O)C1=C(O)C(Nc2nccs2)(C(F)(F)F)N=C1C (stereo unspecified),?,-23%
CCn1c(=O)c2ccccc2n(CC(=O)NC2CCCCC2)c1=O,-8%,-11%
COc1cccc2c1Oc1ncccc1N(C(=O)CCC(=O)NCc1ccc(C)cc1)C2,-3%&-2%,-20%&-26%
O=C1c2ccccc2CN1CCNS(=O)(=O)c1ccc(Cl)cc1,-18%,-2%
CC(C)Sc1nsc2nc(=O)c(/C=C3\C=Nc4ccccc43)c(N)n12,3%,-19%
CC(C)c1ccc(NC(=O)c2n[nH]c(=O)c3ccccc23)cc1,-6%,-3%
COc1ccc(-c2cc3ncccc3cn2)cc1,-3%,?
O=C(C1=C[C@H](c2coc3ccccc3c2=O)C[C@H](OCc2ccc(CO)cc2)O1)N1CCN(Cc2ccccc2)CC1,1%,?

The list continues:
smiles,GCN5L2 inh,TDP1 cell CPT
Cc1ccc(S(=O)(=O)N2CC(O)CC2C(=O)OCC(=O)Nc2ccc([N+](=O)[O-])cc2C(F)(F)F)cc1C (stereo unspecified),-6%,?
O=C(Nc1ccc2c(c1)CCC2)c1cccc(OC(F)F)c1,.,-4%
CC1(C)O[C@@H]2[C@H](O1)[C@@H](CO)O[C@H]2n1c(N2CCCCC2)nc2c(N)ncnc21,4%,4%
COc1cccc(CNc2ncnc3onc(C)c23)c1,-6%,13µM*
O=C(NCCc1cccc(F)c1)C1CCN(S(=O)(=O)c2ccccc2)CC1,-4%,-6%
COC(=O)CCCC1=CC2=CC(=O)C(C)(OC(=O)c3cccs3)C(=O)C2=CN1C1CC1 (stereo unspecified),-13%,-4%
C/C(=N\Nc1ccc([N+](=O)[O-])cc1[N+](=O)[O-])c1ccc(-n2nncc2C(C)(C)C)cc1,7%,21µM*
CC1CCN(c2ccc(-c3cccc(NS(=O)(=O)c4ccc(Cl)s4)c3)nn2)CC1,-12%,8%
O=C(Cn1[nH]c(=O)c2ccccc2c1=O)OCC(=O)c1ccccc1Cl,3%,3%
COC(=O)c1cc(OC)c(OC)cc1NC(=O)c1ccccc1C,-7%,2%
Cc1cccc(OCC(=O)Nc2ccccc2-c2ccccc2)c1,-8%,-26%
C=CCn1c(SCC(=O)Nc2cc(C)nn2-c2ccccc2)nnc1C1CCCCC1,-18%,?
COc1ccccc1CNC(=O)COC(=O)c1ccc(C(=O)c2ccccc2)cc1,-6%,-4%
COc1cc2cc(C(=O)N(C)C3CCS(=O)(=O)C3)[nH]c2cc1OC (stereo unspecified),-27%,-1%
O=C(CC1SC(=O)N(Cc2cccc3ccccc23)C1=O)Nc1nccs1 (stereo unspecified),-5%,?

A different layout for part of the listing above:
Second line of a record: GCN5L2 inh, TDP1 cell CPT
O=C(Nc1ccc2c(c1)CCC2)c1cccc(OC(F)F)c1
→ ., -4%
CC1(C)O[C@@H]2[C@H](O1)[C@@H](CO)O[C@H]2n1c(N2CCCCC2)nc2c(N)ncnc21
→ 4%, 4%
COc1cccc(CNc2ncnc3onc(C)c23)c1
→ -6%, 13µM*
O=C(NCCc1cccc(F)c1)C1CCN(S(=O)(=O)c2ccccc2)CC1
→ -4%, -6%
COC(=O)CCCC1=CC2=CC(=O)C(C)(OC(=O)c3cccs3)C(=O)C2=CN1C1CC1 (stereo unspecified)
→ -13%, -4%

Carrying on.
smiles,GCN5L2 inh,TDP1 cell CPT
O=C1CCSc2ccc(Cl)cc2N1Cc1cccc(Cl)c1,-21%,?
CC(=O)Nc1ccc(NC(=O)c2ccc(-c3ccccc3Cl)o2)cc1,-7%,?
CCOC(=O)C1Oc2ccccc2C(c2ccc(OC)cc2)=C1C(=O)OC (stereo unspecified),-9%,-16%
COc1cccc2cc(C(=O)NCCc3c(C)[nH]c4ccc(Br)cc34)c(=O)oc12,-9%,.
Cc1ccc(NC(=O)CN(C)C(=O)c2cn(Cc3ccccc3)nc2-c2cccnc2)cc1,0%,-14%
CN(CCc1ccccn1)c1ccc([N+](=O)[O-])cn1,-1%,2%
N=C1/C(=C/c2ccc(OCc3ccccc3)cc2)C(=O)N=C2SC(CC(=O)N3CCOCC3)=NN12,-28%,28%
Clc1cccc(CSc2nccn2-c2ccccc2)c1,-18%,?
CC(=O)N1C(=O)C2(C(C#N)=C(N)Oc3cc(C)oc(=O)c32)c2ccccc21 (stereo unspecified),-2%,-1%
O=C1NC2(CCCCCC2)C(=O)N1Cc1ccc(F)cc1Cl,0%,-1%
Cc1oc(S(=O)(=O)N(C)C)cc1C(=O)Nc1ccc(F)cc1,-7%,-6%
CC(C)[C@H](NS(=O)(=O)c1ccc2c(c1)OCCO2)C(=O)OCC(=O)Nc1cccc(Cl)c1Cl,-11%,?
CCOC(CCNC(=O)c1cn(CCOC)c(=O)c2c1c1ccccc1n2C)OCC,-9%,4%
Cc1ccc(S(=O)(=O)N2CCN(c3ccc(C(F)(F)F)cc3[N+](=O)[O-])CC2)cc1,-18%,?
COc1cccc(CNC(=O)c2nnn(CC(=O)Nc3cccc(C)c3)c2N)c1,-3%,-6%

The list continues.
smiles,GCN5L2 inh,TDP1 cell CPT
O=C(c1cccc(N2C(=O)C3C4C=CC(C4)C3C2=O)c1)N1CCCc2ccccc21 (stereo unspecified),-10%,-9%
CC(C)(C)NCCCCOc1ccccc1F,3%,-20%
Cc1cccc(N2CCN(C(=O)NCc3ccc(Cl)cc3)CC2)c1,-2%,?
CCc1ccc(S(=O)(=O)Nc2cc(-c3cn4ccccc4n3)ccc2C)cc1,-5%,?
CS(=O)(=O)Cc1nc2ccccc2oc1=O,-1%,6.5µM*
CCCn1c(=O)c(C#N)cn(C2CC2)c1=O,2%,-2%
O=C(Nc1cccnc1)c1ccc(Cl)c(Cl)c1,-3%,-18%
COc1cccc(C(C)NC(=O)Cc2cccs2)c1 (stereo unspecified),-5%,-3%
COc1cc(NC(=O)C2CC(=O)N(Cc3ccco3)C2)c(OC)cc1Cl (stereo unspecified),-6%,6%
Cc1ccc(CS(=O)(=O)c2ccc(C(=O)N3CCN(c4ccccn4)CC3)cc2[N+](=O)[O-])cc1,-16%,9.2µM*
N=C(N)SCC1=CCS(=O)(=O)C1,2%,-9%
COc1cc(OC)c(N(C)S(=O)(=O)c2cccc(C(=O)OCC(=O)N3CCOCC3)c2)cc1Cl,-2%,?
CC(=O)c1ccc(NC(=O)C(C)OC(=O)C2CC(=O)N(c3ccc4c(c3)OCCO4)C2)cc1 (stereo unspecified),-5%,7%
COc1ccccc1NC(=O)CSc1nnc(-c2ccoc2C)o1,-7%,?
CCc1ccc(-c2nc(CN3CCC(C(=O)N4CCN(c5ccccc5)CC4)CC3)c(C)o2)cc1,-9%,?
COc1ccc(O)c(CN2CCC(n3nccc3NC(=O)C3CCCC3)CC2)c1,-5%,?
